Source: PubChem BioAssay
Marburg entry inh: qHTS for inhibitors of binding or entry into cells for Marburg Virus | Marburg virus pseudotyped entry inhibition, cell reporter; control for the full effect not named in the record; about a third of the inactives were read at about 46 µM | Potency, µM (doses to about 37.8 µM), for inactives: at the highest dose activity change, negative = inhibition, usual class: inhibitors | actives 1.8% (n = 300,000); active = well fitted inhibition curve with a large enough effect; inconclusive = small, poorly fitted or top-dose-only effect, or effect the other way; inactive = flat fitted curve, though single readings scatter; tested in HEK293 cells; about a fifth of its hits are not listed in these tables; further: on the % scale 0 is the no-effect control and ±100 the full control effect; luciferase read-out
LASV entry inh: qHTS for Inhibitors of binding or entry into cells for Lassa Virus; Potency, µM (highest dose often 37.9 µM), for inactives: at the highest dose activity change, negative = inhibition, usual class: inhibitors; actives 1.2% (n = 300,000); AID 540256, 2011; Lassa virus pseudotype entry inhibition, cell reporter; control for the full effect not named in the record; active means well fitted inhibition curve with a large enough effect; inconclusive means small, poorly fitted or top-dose-only effect, or effect the other way; inactive means flat fitted curve, though single readings scatter; tested in HEK293 cells; further: on the % scale 0 is the no-effect control and ±100 the full control effect; nearly all actives have a fitted effect of over 50% in size; luciferase read-out
Cruzain Triton: qHTS Assay for Promiscuous and Specific Inhibitors of Cruzain (with detergent). Potency, µM, for inactives: max response, negative = inhibition, actives largely listed as inhibitors. Cruzipain (Trypanosoma cruzi), P25779. purified cruzain, Z-FR-AMC fluorescence, 0.01% Triton. actives 0.43% (n = 200,000);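 further: plate controls were neutral wells for no effect and buffer without enzyme for full effect; nearly all actives have a fitted effect of over 40% in size; top concentration of the series not given in the record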
Target sequence (P25779 123-467 limits assumed): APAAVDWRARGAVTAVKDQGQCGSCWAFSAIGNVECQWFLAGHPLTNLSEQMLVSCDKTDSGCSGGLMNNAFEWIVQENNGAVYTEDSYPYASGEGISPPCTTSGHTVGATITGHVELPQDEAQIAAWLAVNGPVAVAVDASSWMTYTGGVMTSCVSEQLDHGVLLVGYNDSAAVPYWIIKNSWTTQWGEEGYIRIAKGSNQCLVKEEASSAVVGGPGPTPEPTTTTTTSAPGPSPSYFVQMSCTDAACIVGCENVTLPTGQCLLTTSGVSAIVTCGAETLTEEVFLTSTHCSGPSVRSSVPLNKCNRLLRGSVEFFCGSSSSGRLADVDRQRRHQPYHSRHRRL
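15 min RT preincubation of 1.5 nM cruzain with compound, then 2 uM Z-FR-AMC added; kinetic AMC fluorescence, 60 s delta. Triton X-100 0.01%, pH 5.5.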
Cruzain noTriton: qHTS Assay for Promiscuous and Specific Inhibitors of Cruzain (without detergent); AID 1476, 2009; Potency, µM, without a hit: max response, negative = inhibition, actives largely listed as inhibitors; actives 2.3% (n = 200,000); purified cruzain, Z-FR-AMC fluorescence, no detergent; Cruzipain (Trypanosoma cruzi), P25779;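 further: plate controls were enzyme without inhibitor for no effect and buffer without enzyme for full effect; nearly all actives have a fitted effect of over 40% in size; top concentration of the series not given in the record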
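Purified cruzain at 1.5 nM, pre-incubated 15 min with compound at room temperature in 100 mM sodium acetate pH 5.5, 5 mM DTT, 0.00005% Triton X-100. Reaction started with 2 uM Z-FR-AMC; AMC fluorescence increase over 60 s gives rate.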
RE007 growth inh: qHTS Assay for Inhibitors of the HIV-1 protein Vpr; S. pombe RE007 Vpr strain, BacTiter-Glo ATP luminescence, 24 h; control for the full effect not named in the record; actives 0.21% (n = 360,000); AID 651644, 2012; Potency, µM (highest dose often 92.2 µM), without a hit: top-dose activity change, negative = less growth; active = well fitted falling curve with a large enough effect; inconclusive = small, poorly fitted or top-dose-only effect; inactive = no such curve, though single readings can be large or run the other way;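 further: on the % scale 0 is the no-effect control and ±100 the full control effect; nearly all actives have a fitted effect of over 50% in size; the assay follows cell death caused by Vpr and the record does not say whether a fall means rescue or toxicity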
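Fission yeast strain RE007, carrying one chromosomally integrated HIV-1 vpr copy, was seeded at OD 0.01 in PMG+AL medium with 23 nL pinned compound. After 24 h at 30 °C and 99% humidity, viability was read by BacTiter-Glo luminescence.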
SARS PLpro yeast: qHTS of Yeast-based Assay for SARS-CoV PLP; S. cerevisiae expressing SARS-CoV PLpro, growth rescue; control for the full effect not named in the record; Potency, µM (top dose mostly 32.9 µM), without a hit: at the highest dose activity, positive = growth rescue; actives 0.19% (n = 330,000); active means well fitted rising curve with a large enough effect; inconclusive means small, poorly fitted or top-dose-only effect; inactive means no such curve, though single readings can be large or run the other way; further: 0% is about no effect; nearly all actives have a fitted effect of over 55% in size; growth read by luminescence after 48 h
StopGo reporter: High Throughput Screening for Foot and Mouth Disease Virus Antivirals. Potency, µM (series often up to 57.9 µM), for the others: top-dose signal change, negative = less light. actives 1.2% (n = 410,000). human cells with a luciferase reporter of 2A StopGo recoding; control for the full effect not named in the record; active = well fitted falling curve with a large enough effect; inconclusive = small, poorly fitted or top-dose-only effect; inactive = no such curve, though single readings can be large or run the other way; tested in HEK293T cells; further: on the % scale 0 is the no-effect control and ±100 the full control effect; nearly all actives have a fitted effect of over 45% in size; luciferase light after 4 h
NS1 function inh: qHTS Assay for Inhibitors of Influenza NS1 Protein Function; Potency, µM (highest dose often 46.1 µM), without a hit: at the highest dose activity, positive = more growth; actives 0.4% (n = 270,000); S. cerevisiae slowed by influenza A NS1, growth recovery by OD600; active means well fitted rising curve with a large enough effect; inconclusive means small, poorly fitted or top-dose-only effect; inactive means no such curve, though single readings can be large or run the other way; further: nearly all actives have a fitted effect of over 50% in size
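Read-out: OD600 growth recovery of NS1-expressing budding yeast. Cells grown overnight at 30C in -URA glucose medium, washed, resuspended and diluted 1:100 in 2% galactose assay medium, pH 6.0. Same strain lacking NS1 served as positive control.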
* marks the source's active call; other numbers are inactive results; ? = inconclusive; . = no result given; & = joins results of further samples; [ ] = remark or other dose. Unless noted, the call rests on the fitted dose curve; in most records, active means well fitted curve in the direction sought with a large enough effect; inconclusive means small, poorly fitted or top-dose-only effect, or another doubt; inactive means no such curve, though single readings can be large; an effect the other way counts as inactive or inconclusive. Potency means the concentration at half of the fitted maximal effect.

SMILES	Marburg entry inh	LASV entry inh	Cruzain Triton	Cruzain noTriton	RE007 growth inh	SARS PLpro yeast	StopGo reporter	NS1 function inh
CCCc1nn(C)c(C(=O)Nc2ccc(Cl)cc2)c1Cl	17%	?	-4.3%	-9%	-3%	15%	19%	-5%
COc1ccc(-c2cc(C(F)(F)F)n3nc(C(=O)O)nc3n2)cc1	0%	8%	-8.6%	0%	-3%	0%	3%	-5%
Cc1cccc(C)c1NC(=O)CN(C)C(=O)CCC(=O)N1CCOCC1	2%	7%	.	.	1%	-1%	-12%	.
COc1ccc(CNC(=O)c2ccc(-c3ccccc3)cc2)cc1OC	-27%	9%	-1.9%	0%	10%	-2%	?	6%
NS(=O)(=O)c1ccc(NC(=S)NC(=O)C2CCCC2)cc1	26%[46.1 µM]	?	.	.	-4%	8%	3%	4%
CC(C)(C)c1cc(C(=S)N2CCN(CCO)CC2)cc(C(C)(C)C)c1O	2%	23%	-1.2%	7%	18%	6%	2%	-16%
O=C(CCCN=C1NS(=O)(=O)c2ccccc21)OCC(=O)c1ccc(F)c(F)c1	-3%	16%[46.1 µM]	.	.	3%	0%	-12%	.
O=C(CCCC(=O)Nc1ccc(Br)cc1)N/N=C/c1ccccc1	-2%	-2%	.	.	-14%	2%	-5%	0%
O=C(CCn1c(=O)c2ccccc2n(Cc2ccccc2)c1=O)NC1CCN(Cc2ccccc2)CC1	.	.	.	.	-10%	-6%	-22%	-9%
O=C(NCc1ccco1)/C(=C\c1cccs1)NC(=O)c1ccco1	3%[46.1 µM]	11%[46.1 µM]	.	.	13%	-1%	-2%	.
CCOC(=O)c1cc2c(=O)n3ccccc3nc2n(Cc2ccco2)c1=NC(=O)c1cc(C)cc(C)c1	27%[46.1 µM]	?	-4.4%	-10%	.	.	0%	.
COc1ccc2c(C(=O)CN3CCC(C)CC3)c[nH]c2c1	-1%	-6%	5.6%	5%	8%[3.69 µM]	-4%	-5%	-2%
Cc1cc(Cl)cc(Cl)c1OCCCCN(C)C	?	-15%	0.6%	0%	-8%	7%	-26%	-5%
CCOc1ccc(NC(=NCc2ccc3c(c2)OCO3)SC2CC(=O)N(c3ccccc3)C2=O)cc1 (stereo not given)	?	10%	-0.8%	-26%	3%	-3%	1%	6%
CC1(C)Cc2c(C#N)c(N)sc(=S)c2CS1	1%[46.1 µM]	1%	-15%	2%	-3%	-3%	-15%	-12%
CC12CC(c3ccccc3O1)N(C(=O)c1ccco1)C(=S)N2c1ccc(F)cc1 (stereo not given)	?	?	0.5%	0%	11%	-10%	0%	13%
O=C(O)C(Cc1cnc[nH]1)NS(=O)(=O)c1ccc(Cl)cc1 (stereo not given)	?	-1%	-1.9%	-4%	1%	4%	-7%	9%
CCOC(=O)c1ccccc1NC(=O)[C@@H]1CCCN1C(=O)OC(C)(C)C	.	.	.	.	-19%	1%	-7%	2%
COc1cccc(-n2nnnc2SCC(=O)Nc2ccc(OC)cc2OC)c1	.	.	.	.	17%	1%	-4%	4%
CC1=C(C(=O)Nc2ccc(C)cc2C)C(c2cccn2C)n2ncnc2N1 (stereo not given)	.	1%[46.1 µM]	-1.8%	-7%	.	.	-15%	.
Cn1ccc(=S)c2ccccc21	-11%[46.1 µM]	-15%	.	.	?	-1%	-7%	.
C/C(=N\Nc1cccc(Cl)c1)c1ccncc1	.	.	.	.	-21%	-15%	50%[activator]	-30%
CC12CCC(=O)N1C(C(=O)Nc1cc(Cl)ccc1N1CCCC1)CS2 (stereo not given)	?	9%	.	.	15%	-7%	-20%	.
CN(C(=O)CN1C(=O)c2ccc([N+](=O)[O-])cc2C1=O)C1CCCCC1	9%	18%	.	.	-17%	3%	-9%	.
Cc1cc(N=Nc2ccccc2C)ccc1N	-11%[46.1 µM]	-14%	-11%	-9%	?	.	31%[activator]	.
CCN(C(=O)COC(=O)/C(=C/c1ccccc1)NC(C)=O)c1c(N)n(Cc2ccccc2)c(=O)[nH]c1=O	23%	14%	.	.	11%	.	-5%	.
O=C(CN(C(=O)c1ccc(Cl)cc1Cl)N1C(=O)C2C3C=CC(C3)C2C1=O)c1ccc(F)cc1 (stereo not given)	3%	5%	.	.	-12%	.	-5%	.
O=C(COC(=O)CCc1ccccc1)NNC(=O)c1ccccc1	10%[46.1 µM]	0%[46.1 µM]	.	.	14%	-1%	12%	.
O=C1CC(=O)Nc2cc(S(=O)(=O)N3CCN(c4cccc(C(F)(F)F)c4)CC3)ccc2N1	-10%[46.1 µM]	0%[46.1 µM]	.	.	-2%	0%	-19%	.
COc1ccccc1C(=O)N/N=C/c1ccc2c(c1)OCO2	?	?	.	.	0%	-5%	49%[activator]	-6%
O=C(CSc1nc(-c2ccc(Cl)cc2)nc2c1Cc1ccccc1O2)N1CCCCC1	1%[46.1 µM]	8%[46.1 µM]	0.7%	-5%	.	.	0%	.
COc1ccccc1N1CCN(C(=O)c2sc3ncn(CC(=O)N4CCC(C)CC4)c(=O)c3c2C)CC1	.	.	.	.	-5%	6%	-16%	-18%
O=C(CC1Nc2ccccc2NC1=O)NCC1COc2ccccc2O1 (stereo not given)	11%	-3%	-14%	-12%	38%	1%	-7%	4%
COc1ccc(NC(=O)OCCN2CCN(Cc3ccccc3)CCC2=O)cc1	9%	17%	-0.6%&0.8%	-13%&-4%	-11%	1%	21%	-16%
Cc1ccc(S(=O)(=O)NNC(=S)Nc2cccc(F)c2)cc1	.	.	.	.	11%	-2%	8%	-11%
COC(=O)c1c(NC(=O)CN2CCC(C(N)=O)CC2)c2c(C)cccc2n1C	9%	-6%	-2.5%	-2%	10%	2%	-4%	?
CC(C(=O)OCC(=O)Nc1cccc(S(=O)(=O)N(C)C)c1)N1C(=O)c2ccccc2C1=O (stereo not given)	3%[46.1 µM]	-2%[46.1 µM]	.	.	9%	-1%	-13%	-17%
Clc1ccc(OCCSc2ncccn2)cc1	?	22%	-3.1%	5%	-10%	-2%	14%	-60%
CN(CC(=O)NCc1ccncc1)S(=O)(=O)c1ccc(Cl)cc1	.	.	.	.	-13%	0%	-4%	2%
CCOc1ccc(CNC(=O)C2CCN(c3nnc(C)c4c(C)n(-c5ccc(C)cc5)nc34)CC2)cc1	.	.	.	.	-18%	-3%	?	23%
Cc1ccccc1N1CC(C(=O)Nc2nnc(SCCN3CCOCC3)s2)CC1=O (stereo not given)	.	.	.	.	-5%	-1%	0%	?
CCOc1ccc(N2C(=O)CC(N(C)Cc3ccccc3)C2=O)cc1 (stereo not given)	-26%	-1%	-1.5%	-8%	35µM*	-126%	-21%	-81%
CC(=O)NC(C)(C)C1CC=C(C)/C(=N\O)C1 (stereo not given)	17%	-2%	-0.4%	-11%	4%	3%	16%	7%
Cc1ccc(C)c(N)c1	.	.	5.6%	1%	4%	-3%	-20%	.
CSC1=N/C(=C/c2cccnc2)C(=O)N1Cc1ccccc1	14%[14.2 µM]	?	.	.	2%	-2%	-10%	4%
CC(Sc1nncn1C)C(=O)Nc1nnc(-c2ccccc2)s1 (stereo not given)	.	.	-5.9%	8%	11%	-4%	45%[activator]	9%
Cc1ccccc1NS(=O)(=O)c1ccc2c(c1)oc(=O)n2C	.	.	.	.	-13%	1%	-8%	-1%
COc1cc(OC)c2ccc(=O)oc2c1C(CC(=O)N1CCN(c2ccccc2)CC1)c1ccc2c(c1)OCO2 (stereo not given)	.	.	.	.	-10%	-3%	-19%	8%
COc1cccc(C(=O)Nc2cc3cc(OC)ccc3oc2=O)c1	.	1%[46.1 µM]	0.5%	-1%	.	.	-2%	.
CCOC(=O)c1c(NC(=O)/C=C/c2ccc(C(C)C)cc2)sc2c1CCC2	.	?	-1.1%	1%	.	.	-7%	.

(next part)
SMILES	Marburg entry inh	LASV entry inh	Cruzain Triton	Cruzain noTriton	RE007 growth inh	SARS PLpro yeast	StopGo reporter	NS1 function inh
COC(=O)c1cc2cc(Cl)ccc2nc1SC	-1%	-17%	.	.	-11%	0%	-14%	-2%
Cc1oc(-c2ccccc2Cl)nc1CSc1nc2c(c(=O)[nH]1)CCCC2	.	.	.	.	-2%	3%	-23%	-4%
CCOC(=O)N1CCC(N(CCN(C)C)C(=S)Nc2cccc(C)c2)CC1	23%	2%	-0.1%	1%	14%	-11%	-13%	-4%
COc1ccc(OC)c(NC(=O)CSc2nccn2Cc2ccco2)c1	.	.	.	.	-5%	2%	1%	-8%
Cc1cc(C)c(O)c(-c2cc(C(=O)Nc3ccc(S(=O)(=O)N4CCOCC4)cc3)[nH]n2)c1	?	?	-1.4%	15%	2%	2%	?	11%
C/C=C(/C)C(=O)O[C@@H]1c2cc3c(c(OC)c2-c2c(cc(OC)c(OC)c2OC)[C@@H](OC(C)=O)[C@@H](C)[C@H]1C)OCO3	.	.	.	.	-24%	-1%	?	1%
Cc1cccn2c(NC(=O)c3ccccc3F)c(-c3ccccc3)nc12	.	.	.	.	-11%	-3%	-5%	1%
CC(=O)Nc1ccc(S(=O)(=O)NCc2csc(-c3cccnc3)n2)cc1	-2%	?	-3.3%	-10%	5%	?	3%	-2%
CN1C(=O)C(=Cc2ccc(N3CCOCC3)o2)C(=O)N(C)C1=S	25%[46.1 µM]	2%	.	.	-10%	0%	9%	5%

Structural class, those above with a CF3 group.
SMILES	Marburg entry inh	LASV entry inh	Cruzain Triton	Cruzain noTriton	RE007 growth inh	SARS PLpro yeast	StopGo reporter	NS1 function inh
COc1ccc(-c2cc(C(F)(F)F)n3nc(C(=O)O)nc3n2)cc1	0%	8%	-8.6%	0%	-3%	0%	3%	-5%
O=C1CC(=O)Nc2cc(S(=O)(=O)N3CCN(c4cccc(C(F)(F)F)c4)CC3)ccc2N1	-10%[46.1 µM]	0%[46.1 µM]	.	.	-2%	0%	-19%	.
